Bioassay records as filed in PubChem BioAssay.
VACV E9 pol inh = vaccinia E9 polymerase processive synthesis inhibitors, primary screen, biochemical, absorbance; AID 493162, 2011; in vitro processive DNA synthesis, absorbance read-out; hits give low values; some inactives read as strong as hits; normalized absorbance, % (test concentration not listed); 46,000 compounds, 0.94% hits;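 active = replicate mean up to 90% and picked by the depositor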;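 also: 100% = median of the test wells of a plate; 100 nL library stock went into each well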
Starred values were filed as active, the others as inactive; & = joins results of further samples. Only part of the results is shown; the hit share may differ from the screen's.

Molecule	VACV E9 pol inh
O/N=C/c1cc2c(cc1Br)OCO2	106
O=C(COc1ccc(Cl)cc1)CC(=O)c1ccc(Cl)cc1	100
Cc1ccccc1Cn1c(-c2cccs2)noc1=O	95
O=C(CSC(=O)c1ccccc1)Nc1ccc(Br)cc1F	100
O=C(O)/C=C/C(=O)N(Cc1ccccc1)Cc1ccccc1	100
COc1ncnc2sc(-c3ccccc3)cc12	103
COc1ccc(C2c3cc4c(cc3OC(C)(N3CCCC3)C2C)OCO4)cc1 (centres undefined)	98
O=C1c2ccccc2-c2nc(-c3ccccc3)cc3cccc1c23	100
COc1ccc(CCNC(=O)COc2cc(C)c3ccccc3n2)cc1	96
O=C(NCc1ccc(N2CCOCC2)cc1)c1cc(F)cc2c1OCOC2	104
CCC(=S)/C=C1\Sc2ccc(OC)cc2N1CC	100
c1ccc(-c2ncsc2-c2ccccc2)cc1	92
CN1C/C(=C\c2ccccc2F)C(=O)/C(=C/c2ccccc2F)C1	100
CC1(C)CC2(CCCN(CC#N)C2)CCO1 (centres undefined)	98
NS(=O)(=O)c1ccc(NC(=O)COc2cccc3ccccc23)cc1	100
CCn1c(SCC(=O)N2CCCC2)nnc1-c1c[nH]c2ccccc12	99
CCN(CC)CCSc1nnc2c3ccccc3n(CC(N)=O)c2n1	99
COC(=O)c1sc2nc(SCc3ccccc3C)n(N)c(=O)c2c1C	103
Cc1cc(C)c(NC(=O)CN2C(=O)CSCC2=O)c(C)c1	109
CC1CCN(Cc2ccc(N)cc2)CC1	95
COC1OC2COC(C2O)C1O (centres undefined)	101
Cn1cccc1Cc1nnc(SCC(=O)NCc2ccccc2)n1C	103
CS(=O)(=O)N1CCN(c2cccc(Cl)c2)CC1	100
N#CC1=C(N=Cc2cc(Cl)cc(Cl)c2O)CCC1	83*
O=C(Cn1ncc2c1-c1ccccc1OC2)NCc1cccs1	93
CN1C(=O)c2ccccc2C(C(=O)Nc2ccc(F)c(Cl)c2)C1c1c[nH]c2ccccc12 (centres undefined)	96
O=C1NC(=Nc2cccnc2)S/C1=C/c1ccc(O)cc1	100
CC(C)OC(=O)Oc1ccc2oc(=O)sc2c1	100
O/N=C1\CCC2CN(C3CCCCC3)CC2C1 (centres undefined)	101
Cc1ccc(N2CCN(c3ccc(C)cc3)C2c2ccncc2)cc1	100

Some values from the list.
O/N=C/c1cc2c(cc1Br)OCO2 – VACV E9 pol inh = 106
CS(=O)(=O)N1CCN(c2cccc(Cl)c2)CC1 – VACV E9 pol inh = 100
O=C(Cn1ncc2c1-c1ccccc1OC2)NCc1cccs1 – VACV E9 pol inh = 93
COc1ccc(CCNC(=O)COc2cc(C)c3ccccc3n2)cc1 – VACV E9 pol inh = 96
COc1ncnc2sc(-c3ccccc3)cc12 – VACV E9 pol inh = 103
O=C(NCc1ccc(N2CCOCC2)cc1)c1cc(F)cc2c1OCOC2 – VACV E9 pol inh = 104
CN1C/C(=C\c2ccccc2F)C(=O)/C(=C/c2ccccc2F)C1 – VACV E9 pol inh = 100
Cc1ccc(N2CCN(c3ccc(C)cc3)C2c2ccncc2)cc1 – VACV E9 pol inh = 100
c1ccc(-c2ncsc2-c2ccccc2)cc1 – VACV E9 pol inh = 92
O/N=C1\CCC2CN(C3CCCCC3)CC2C1 (centres undefined) – VACV E9 pol inh = 101

Entries shown so far that have fluorine:
Molecule	VACV E9 pol inh
O=C(CSC(=O)c1ccccc1)Nc1ccc(Br)cc1F	100
O=C(NCc1ccc(N2CCOCC2)cc1)c1cc(F)cc2c1OCOC2	104
CN1C/C(=C\c2ccccc2F)C(=O)/C(=C/c2ccccc2F)C1	100
CN1C(=O)c2ccccc2C(C(=O)Nc2ccc(F)c(Cl)c2)C1c1c[nH]c2ccccc12 (centres undefined)	96

Further records
Molecule	VACV E9 pol inh
O=C1N(c2ccccc2)C(c2ccco2)C1(F)F (centres undefined)	88
O=C(Oc1cccc2cccnc12)c1cccc(Cl)c1	99
c1coc(CSCc2cn3cccnc3n2)c1	101
Cc1ccc(C(=O)CSc2nccn2-c2ccccc2)cc1	106
Cn1cnc2c(NCc3ccccc3)nc(NCCO)nc21	100
COc1ccc(NC(=O)COC(=O)C2CC(=O)N(Cc3ccc(C)cc3)C2)cc1 (centres undefined)	83
Cc1cccc(-n2ncc3c(N(CC(C)C)CC(C)C)ncnc32)c1	102
CC(C)c1ccc(NC(=O)C2CCC(CNS(=O)(=O)c3cccc4cccnc34)CC2)cc1 (centres undefined)	102
O=C(Cc1cn2ccsc2n1)OCc1ccccc1	100
NC(=O)CSc1ccc(-c2cccs2)nn1	97
N#Cc1nc(-c2ccccc2)oc1NCCN1CCCCC1	101
Cc1nn(C(=O)c2c[nH]c3ccccc23)c(N)c1-c1ccccc1	100
Cc1nnc2c3ccccc3c(-c3cccs3)nn12	99
O=C(O)CSc1nnc(-c2ccco2)n1Cc1ccccc1	98
COC(=O)c1cn(C(=O)CCc2ccccc2)c2ccccc12	100
CSc1nc2cc(C)nn2c(-c2ccco2)c1C#N	107
CN(C)/C=N/c1nnc(SCC(=O)Nc2cc(Cl)cc(Cl)c2)s1	92
COC(=O)c1sccc1S(=O)(=O)Nc1ccc2c(c1)OCCO2	99
CCCC(C)C1(CC)C(=O)NC(=O)NC1=O (centres undefined)	92
O=C(/C=C/c1cccs1)OCC(=O)c1ccccc1	99
CCCC(=O)Nc1nnc(-c2ccccc2F)s1	106
CN(C)c1ccc(P(=O)(OCc2ccccc2)C(O)c2ccccc2)cc1 (centres undefined)	101
CC(C)(C)c1ccn(CC(=O)c2ccc(Cl)cc2)n1	96
O=C(NCC1CCCO1)c1cc(=O)[nH]c2ccc(Br)cc12 (centres undefined)	105
CN(C)c1ccc(C2Nc3sc4c(c3C(=O)N2C)CCCC4)cc1 (centres undefined)	101
Cn1cnc(S(=O)(=O)Nc2cccc(Cl)c2)c1	100
O=C(O)C1CCCN1C(=O)OCc1ccccc1 (centres undefined)	100
O=C(Nc1scc(-c2cccs2)c1C(=O)O)c1ccc(F)cc1	99
COc1ccc(OCC2CN=C(Nc3ccc(C)cc3)S2)cc1 (centres undefined)	106
COC(C(=O)NCc1cccnc1)c1ccccc1 (centres undefined)	100
COC(=O)c1cc(C)cc(=O)o1	100
CCOC(=O)CCc1c(C)nc2c(c(C)nn2C(C)(C)C)c1C	96
O=C(Cc1cccs1)N1c2ccccc2Sc2ccccc21	100
O=C(OCn1nnc2ccccc2c1=O)c1cccnc1	100
CCOc1ccc(CC2SC(N)=NC2=O)cc1 (centres undefined)	94
O=C(CSc1nc(-c2cccs2)cc(C(F)(F)F)n1)N1CCSCC1	101
Cc1cc(NC(=O)CCOc2ccc(F)cc2)no1	101
S=C(CC(=S)N1CCOCC1)N1CCOCC1	101
CSc1cccc(NC(=S)N(CCN2CCCCC2)Cc2ccco2)c1	100
O=C1C(=O)N(CCCN2CCOCC2)C(c2cccs2)/C1=C(\O)c1ccccc1 (centres undefined)	100
Cc1ccc(N(C(=O)c2ccccn2)C2(C(=O)Nc3c(C)cccc3C)CCCCC2)cc1	100
CC(C)OC(=O)c1cc2nc(-c3ccccc3)cc(C(F)(F)F)n2n1	100
CC(=O)N1CCN(C(=O)c2cc(-c3ccc(C)cc3)nc3ccccc23)CC1	99
CC(N)c1nc2ccccc2[nH]1 (centres undefined)	97
CCOC(=O)Cn1nc(-c2ccc(Cl)cc2)ccc1=O	101
COc1ccccc1Cc1nnc(C(=O)NCCc2ccccc2)o1	104
CCc1cc2c(N3CCN(c4nc(C)cc(C)n4)CC3)ncnc2s1	93
CCOc1cccc2cc(-c3nc4ccccc4[nH]3)c(=O)oc12	100
Cc1ccc(-c2nc(C#N)c(NCc3ccc4c(c3)OCO4)o2)cc1	107
CCCCN(Cc1ccccc1)S(=O)(=O)c1cccc2nsnc12	99
CC(Oc1ccccc1)c1nc2ccccc2[nH]1 (centres undefined)	99
CCc1ccc(NC(=O)c2[nH]nc3c2CSc2ccccc2-3)cc1	110
CCC1CCc2c(sc3ncnc(N4CCOCC4)c23)C1 (centres undefined)	100
COc1ccccc1C(=O)OCC(=O)NCc1ccccc1	82
COc1ccccc1NC1=NCCS1	106
S=c1nc[nH]c2c1cnn2-c1ccccc1	89&93
O=C1OC(N2CCc3ccccc3C2)c2ccccc21 (centres undefined)	100
O=C(NCc1ccc(Cl)cc1)c1cc2sccc2n1Cc1ccc(F)cc1	104
CC(C)c1ccc(NC(=O)C2CC(=O)N=C(N)S2)cc1 (centres undefined)	103
CN(C)c1ccc(/C=C2\SC(=S)NC2=O)cc1	87

3 entries out of the list, ordered by SMILES length, smallest number first.
Molecule	VACV E9 pol inh
O=C1NC(=Nc2cccnc2)S/C1=C/c1ccc(O)cc1	100
COC(=O)c1cn(C(=O)CCc2ccccc2)c2ccccc12	100
CN(C)/C=N/c1nnc(SCC(=O)Nc2cc(Cl)cc(Cl)c2)s1	92

(list continues)
Molecule	VACV E9 pol inh
CC1CCCC(NC(=O)CN2C(=O)/C(=C\c3ccccc3Cl)Oc3ccccc32)C1C (centres undefined)	97
Cc1cc(C(F)(F)F)nc2snc(Br)c12	103
O=C(NCC1COc2ccccc2O1)c1cc2c(s1)-c1ccccc1OC2 (centres undefined)	103
Cc1c(C(=O)NC2CCCC2)oc2ccc3c(c12)C=CC1(CCCC1)O3	103
CC(CN1CC2CC(C1)c1cccc(=O)n1C2)SC(=N)N (centres undefined)	96
O=C(O)CNC(=O)/C=C/c1ccccc1F	98
Clc1nc(-c2ccccc2)nc2ccsc12	95
O=C(Sc1ccc(Cl)cc1)c1cnn(-c2ccccc2)c1C(F)(F)F	92
CCCc1ccc(-c2cc(N)n(-c3ccccc3)n2)cc1	102
O=C(Nc1ccc2c(c1)OCO2)Oc1ccccc1	105
N#CC(C#N)=c1ccc(=C(C#N)c2ccc(N3CCCC3)cc2)cc1	99
COC(=O)c1sccc1NC(=O)c1cc(S(=O)(=O)N(C)C)oc1C	107
CN1C(=O)/C(=C\c2ccc(O)cc2)SC1=S	114
CCCNC(=O)c1cc2sc(Cl)cc2n1CC	101
Oc1ccccc1N=Cc1ccncc1	100
CC1(Cc2nc3ccccc3[nH]2)OCCO1	104
O=C(C1c2ccccc2Oc2ccccc21)N1CCCc2ccccc21	100
Cc1cccc(N(C)C(=O)c2cc3c(=O)oc4ccccc4c3s2)c1	103
N#Cc1c(N)n(Cc2ccccc2)c2nc3ccccc3nc12	104
N=C1S/C(=C/c2ccccc2)C(=O)N1c1nonc1N	99
COC(=O)Nc1sc(-c2ccc(Cl)cc2)nc1-c1cccs1	88
CC1CC(C)(C)OC(C[N+]2(C)CCCCC2)O1 (centres undefined)	100
O=C(Nc1cc2cc(Br)ccc2oc1=O)C1CCCCC1	103
Cn1c(=O)[nH]c(=O)c2c1nc1n2CCCC1c1ccccc1 (centres undefined)	100
CC(=O)NC1C(=O)N(Cc2ccccc2)c2ccccc21 (centres undefined)	98
COc1ccc(-c2cc(C(=O)NCCc3ccccc3)nc3n[nH]c(-c4ccccc4)c23)cc1OC	103
C=CCNC(=O)c1cc(-c2ccccc2O)on1	101
Cc1cccc(N(CC(N)=O)S(C)(=O)=O)c1C	100
Cc1cc(CN2CCN(Cc3ccccc3)CC2)cs1	105
CC1(C)CC(NC(=O)/C=C/C(=O)NC2CC(C)(C)NC(C)(C)C2)CC(C)(C)N1	101
Cc1ccc(Cl)cc1N1CCN(C(=O)c2ccccc2N(Cc2ccccc2)S(C)(=O)=O)CC1	100
COc1ccc(C2=NN(CC(=O)NCc3ccc(C)cc3)C(=O)CC2)cc1	100
O=C(c1nsc2ccccc12)N1CCCCC1	102
Cc1cc(=O)n(CC(C)O)c(O)c1C#N (centres undefined)	101
COc1ccccc1Oc1ccc(S(=O)(=O)N2CCOCC2)cc1	100
C=CCn1cc(C(=O)NCCN2CCCCCC2)c(=O)c2cc(S(=O)(=O)N(CC)CC)ccc21	99
O=C(OCC1CCCN2CCCCC12)C1CCNCC1 (centres undefined)	100
COC(=O)CN1Cc2ccccc2C1=O	99
CCN(/C=N/c1sc2c(c1C#N)CCCCC2)CC	100
CC(C)N1C(=O)C(O)(CC(=O)c2ccccc2O)c2ccccc21 (centres undefined)	96
O=C(c1ccc(Br)cc1)N(c1ccccn1)C1CCCCC1	99
CC(C)(C)c1ccc(CNC(=O)C2CCCN2C(=O)Nc2ccccc2)cc1 (centres undefined)	98
Cc1cc(Cl)ccc1OC(=O)c1sccc1C	101
COC(=O)Cn1cncn1	98
Cc1ccc(OCC(O)CN2CCCCC2)c(C)c1 (centres undefined)	100
C=CCNC(=S)N1CCN(C(c2ccccc2)c2ccccc2)CC1	100
C[N+](C)(CCC#N)Cc1cccc2ccccc12	99
CCn1c2[n+](c3ccccc3c1=O)CCC2	100
CC(C)(C)c1cc(C(C)(C)C)c2oc(C(=O)O)cc(=O)c2c1	91
O=C1C(=O)N(CCN2CCOCC2)C(c2ccc(F)cc2)/C1=C(\O)c1ccc(F)cc1 (centres undefined)	100
CCC(=O)NC(C)C(c1cccs1)N1CCOCC1 (centres undefined)	92
Cc1ccc(/C=N/N(C)S(=O)(=O)c2ccc(C)cc2)cc1	100
C=CCn1c(SCc2nnc(SCc3ccc(F)cc3)n2C)nnc1-c1ccccc1	101
CCCN(CCC)C(=O)Cc1c(C)nc2c(-c3ccccc3)c(C)nn2c1C	85
O=C(CC1(O)OC(c2ccc(Cl)cc2)=CC1=O)c1ccc(Cl)cc1 (centres undefined)	99
CC1CN(c2ccc(NC(=S)NN)cc2)CC(C)O1 (centres undefined)	90
CCn1c(CNC(=O)COC)nc2ccccc21	101
Cc1sc2ncnc(Oc3ccc(Cl)cc3Cl)c2c1C	83
CCCCn1c(=N)n(CC(=O)OC)c2ccccc21	97
